# LT uptake inh – qHTS Assay for Anthrax Lethal Toxin Internalization | Cells, anthrax lethal toxin internalization, FRET ratio (460/530) | 70,000 compounds, 0.67% hits | Potency, µM (top dose mostly 40 µM), for inactives: at the highest dose activity change, negative = inhibition, hits mostly inhibitors; active = well fitted falling ratio curve with the 530 nm signal flat; inconclusive = other ratio curves, or a change in one channel alone; inactive = flat curves in the ratio and both channels; the % refers to the ratio; also: % is scaled to controls: 0 for no effect and ±100 for the full control effect; nearly all actives have a fitted effect of over 50% in size; tested in ME-180 cells; beta-lactamase reporter
# SmPrx2 inh – Schistosoma Mansoni Peroxiredoxins (Prx2). 65,000 compounds, 0.07% hits. Schistosoma mansoni peroxiredoxin 2 (Prx2). Potency, µM. S. mansoni Prx2 activity coupled to TGR/GSH (TGR is thioredoxin glutathione reductase), NADPH fluorescence loss, qHTS; some inactives read as strong as hits; active means full or partial inhibition curve with a strong effect at the top dose; inconclusive means weaker partial or single-point curve; inactive means no accepted curve; also: series up to 57 µM; many of its hits are not listed in these tables
#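 Coupled assay in which S. mansoni TGR passes NADPH reducing equivalents via glutathione to Prx2, which reduces H2O2. Compounds were preincubated 15 min at room temperature with 25 nM TGR/50 nM Prx2 mix. Kinetic NADPH fluorescence loss (ex 365/em 450 nm) was monitored.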
# Starred values were filed as active, the others as inactive; u = inconclusive; x = not tested or not shown; & = joins results of further samples; [ ] = another dose, or the depositor's remark. Potency is read from the fitted curve at half-maximal effect. This is a subset; rates above refer to the full screens.
cpd	SMILES	LT uptake inh	SmPrx2 inh
1	COCCC(=O)N(Cc1ccc2c(c1)OCO2)C(C(=O)NC1CCCCC1)c1ccncc1 (configuration not stated)	8.7%	>57
2	CCOC(=O)c1sc(NC(=O)CSc2nc3c(cc2C#N)CCCCCC3)c(C#N)c1C	u	>57
3	CC#CCOCC/C=C1/c2ccccc2C(OC)C1C (configuration not stated)	-6.5%[8 µM]	x
4	CC(NC(=O)COc1cc(=O)n(C)c2ccccc12)c1ccc2c(c1)OCCO2 (configuration not stated)	13.7%	>57
5	CC1CC(=O)C=C(O)C1C(=O)OC(C)(C)C (configuration not stated)	0.7%	>57
6	CCOC(=O)N1CCC(NC(=O)c2cc3c(-c4ccc(OC)c(OC)c4)nn(C)c3s2)CC1	-19.2%	>57
7	COC(=O)[C@@]1(Cc2ccc(OC)cc2)[C@H]2c3cc(C(=O)N4CCCC4)n(CCc4c[nH]c5ccc(OC)cc45)c3C[C@H]2CN1C(=O)c1ccccc1	0.5%	>57
8	CCN(c1ccccc1)S(=O)(=O)c1ccc(NCC2COc3ccccc3O2)nc1 (configuration not stated)	u	>57
9	Cc1ccc(-c2cc(C(=O)NCc3ccc4c(c3)OCO4)[nH]n2)c(O)c1C	u	>57
10	Cc1cccc(CS(=O)(=O)Cc2ccc(C(=O)NCc3cccnc3)o2)c1	4.9%	>57
11	CCc1ccc2[nH]c(=O)c(CN(CCCN3CCOCC3)C(=O)Nc3ccc(Cl)cc3)cc2c1	-3.0%	>57
12	Cc1ccc2[nH]c(=O)c(CN(CCCN3CCOCC3)C(=O)NC3CCCCC3)cc2c1	2.2%	>57
13	CCCc1c(C)c2cc(C)ccc2[nH]c1=O	1.5%	x
14	CC(C)CCNC(=O)NC(=O)COC(=O)C1=COCCO1	-6.8%	>57
15	O=C(NC1CCS(=O)(=O)C1)c1cccc(S(=O)(=O)N2CCCCC2)c1 (configuration not stated)	-2.7%	>57
16	Cc1ccc(C)c(-n2nnnc2SCC(=O)Nc2cccc(-c3nnc4n3CCCCC4)c2)c1	u	>57
17	Cc1cc(C)n(-c2nc(C)nc(NCc3ccccc3)n2)n1	-10.4%	>57
18	CC1CCCN(CCCNC(=O)C2CC(=O)N(c3ccc(F)c(Cl)c3)C2)C1 (configuration not stated)	2.9%	>57
19	CC(C)c1nc2oc3c(NCc4cccnc4)ncnc3c2c2c1CCC2	x	>57
20	CC(=O)Nc1cc(NC(=O)C2C3C=CC(C3)C2C(=O)O)ccc1Cl (configuration not stated)	9.4%	>57
21	O=C(NCc1ccccn1)c1cc2ccccc2oc1=O	10.1%	>57
22	Clc1ccc(Cc2noc(Cc3ccccc3)n2)cc1Cl	u	>57
23	Cc1onc(-c2ccccc2Cl)c1C(=O)Nc1cccc2nsnc12	u	>57
24	COc1ccc(N2CCn3c2nc2c3c(=O)n(CCCc3ccccc3)c(=O)n2C)c(OC)c1	0.9%	>57
25	NNC(=O)c1ccncc1	-4.7%	>57
26	c1ccc(CCc2nc(-c3ccccn3)no2)cc1	6.9%	>57
27	O=C(Cn1c(-c2ccccc2)noc1=O)NCc1ccccc1	13.6%	>57
28	O=C(NC12CC3CC(CC(C3)C1)C2)N1CCC(O)(c2ccc3c(c2)OCO3)CC1	0.3%	>57
29	COC(=O)c1ccccc1S(=O)(=O)N1CCC(c2nc3ccccc3o2)CC1	-8.0%	>57
30	Cc1ccc(S(=O)(=O)Cn2nnnc2CN2CCN(Cc3ccc4c(c3)OCO4)CC2)cc1	-12.5%	>57
31	COC(=O)C1(C)NC(c2ccc(O)cc2)C2C(=O)N(c3ccc4c(c3)OCCO4)C(=O)C21 (configuration not stated)	7.4%	x
32	O=c1cc(-c2ccccc2O)oc2ccc3ccccc3c12	-23.2%	>57
33	CCOC(=O)N1CCN(C(=O)CN(Cc2ccc(Cl)cc2)S(C)(=O)=O)CC1	-20.6%	>57
34	CCOC(=O)N1CCN(C(=O)C2CC(c3ccc(F)cc3)=NO2)CC1 (configuration not stated)	-7.9%	>57
35	O=C(COC(=O)CCc1c[nH]c2ccccc12)NC1CCS(=O)(=O)C1 (configuration not stated)	2.7%	>57
36	CCN(CC)C(=O)c1cncc(C(=O)N(CC)CC)c1-c1ccccc1	-2.1%	>57
37	Cc1ccc(Cl)cc1NC(=O)Cn1cccc1	-3.2%	>57
38	O=C(c1ccco1)N1CCC[C@@]2(CCN(c3ccccc3)C2)C1	u	>57
39	CCOC(=O)N1CCC(NC(=O)CCC(=O)N2CC(C)Oc3ccc(C)cc32)CC1 (configuration not stated)	22.9%	>57
40	CCCOc1ccc(Cc2nn3c(=O)/c(=C/c4ccco4)sc3nc2=O)cc1	-1.2%	>57
41	O=C(NCc1ccco1)Nc1ccc(Br)cc1	u	x
42	Cc1cccc2cc3c(nc12)SC(=NCC1CCCO1)N(Cc1ccco1)C3 (configuration not stated)	u	>57
43	Cc1cc(NCc2ccc(F)cc2Cl)n2nnnc2n1	3.5%	>57
44	CCCn1c(=O)c2ccccc2n2c(SCCOc3ccccc3)nnc12	-2.4%	>57
45	O=C(NCc1ccc2c(c1)OCO2)c1cccc(Cl)c1	-16.2%	>57
46	COc1ccc(OC)c(NC(=O)C2CCCN2C(=O)OCc2ccccc2)c1 (configuration not stated)	2.8%	>57
47	O/N=C1/C2C3CC4C5C3C1C5C1(OCCO1)C42 (configuration not stated)	-1.5%	>57
48	CC(=O)c1cccc(NC(=O)NC(C)C2CCCO2)c1 (configuration not stated)	-5.5%	>57
49	Cc1noc(C)c1-c1cncnc1-n1ccnc1	6.4%	>57
50	CC(=O)c1ccc(C2C=CC(Oc3ccc(-c4ccccc4)cc3)C(CO)O2)cc1 (configuration not stated)	-5.7%[8 µM]	x

# Continuation:
cpd	SMILES	LT uptake inh	SmPrx2 inh
51	O=C(NC1CCCC1)C1CCCN1C(=O)Nc1ccccc1Cl (configuration not stated)	2.3%	>57
52	CC(C)c1nnc(NC(=O)CCS(=O)(=O)c2nc(-c3cccs3)cc(C(F)(F)F)n2)s1	20.5%	>57
53	CC(=O)N1CCCc2cc(S(=O)(=O)Nc3ccc4c(c3)OCO4)ccc21	16.0%	>57
54	N#Cc1c(N)nc(SCc2ccccc2)c(C#N)c1-c1ccco1	u	>57
55	O=C(COc1ccccc1)Nn1cnc2ccccc21	-9.0%	>57
56	COCCCNC(=O)CCc1nc(-c2ccccc2)no1	-12.8%	>57
57	Cn1c(=O)c2c(nc(CN3CCN(Cc4ccccc4)CC3)n2CCN2CCOCC2)n(C)c1=O	u	>57
58	C[C@H](N)[C@H](O)c1ccc(O)c(O)c1	-2.1%[3.58 µM]	>57&>57
59	CCC1Oc2ccccc2N(CC(=O)NCCCN2CCCCC2C)C1=O (configuration not stated)	10.1%	>57
60	O=C(O)CCCC(=O)Nc1nc(-c2ccccc2)cs1	4.1%	>57
61	CCOC(=O)C1=C(C)NC2=C(C(=O)CC(C)(C)C2)C1c1cccc(C)n1 (configuration not stated)	u	>57
62	Cc1cc(NC(=O)CSc2cn(CCNC(=O)c3ccc(F)cc3)c3ccccc23)no1	-15.1%	>57
63	OC(C#Cc1ccccn1)c1cccs1 (configuration not stated)	9.0%	>57
64	CC1CCCN(C(=O)c2cc3c(-c4ccc(Cl)cc4)nn(C)c3s2)C1 (configuration not stated)	7.9%	>57
65	O=C(OCC(=O)N1CCN(C(=O)c2ccco2)CC1)c1sc2ccccc2c1Cl	15.7%	>57
66	COc1ccc(NC(=O)C(CCS(C)(=O)=O)NC(C)=O)cc1 (configuration not stated)	1.4%	>57
67	O=C1NCN(c2ccccc2)C12CCN(C[C@H]1COc3ccccc3O1)CC2	u	>57&>57
68	O=c1nc(-c2ccccc2)cn[nH]1	4.4%	>57
69	O=C(c1ccc(Cl)cc1)C1C2C(=O)N(c3ccccc3)C(=O)C2C2CCCN21 (configuration not stated)	7.0%	>57
70	O=C(O)CCSc1nnc(-c2ccc3c(c2)OCO3)o1	4.0%	>57
71	CCN=C1SC(CC(=O)Nc2ccccc2)C(=O)N1CC (configuration not stated)	9.9%	>57
72	O=c1[nH]oc2c1CCNC2	-4.6%	>57&>25.6&>57
73	O=C(O)C1C2C=CC3(CN(C4CCCC4)C(=O)C13)O2 (configuration not stated)	-2.1%	>57
74	COc1ncc2nc(-c3cc(F)cc(F)c3)c(=O)n(CCc3ccccc3)c2n1	u	>11.4
75	Cn1cc(CCC(=O)N2CCC3(CC2)OCCO3)c2ccccc21	0.0%	>57
76	COC(=O)c1ccc(OCC(O)CN(CCO)CCO)cc1 (configuration not stated)	6.8%	>57
77	Cc1nc2c(c(C)nn2-c2ccccc2)c(C)c1Cl	u	>57
78	Cc1c(C(=O)NCc2ccc3c(c2)OCO3)oc2ccc(S(=O)(=O)N3CCCC3)cc12	-26.7%	>57
79	CCCCOc1ccccc1NC(=O)c1ccc(=O)[nH]c1	x	>57
80	Cc1cc(C)nc(N2CCC(C(=O)Nc3ccc(Oc4ccccc4)cc3)CC2)n1	-3.5%	>57
81	COc1ccccc1-c1cc(NCc2cccnc2)ncn1	8.9%	>11.4
82	CCCNc1nc2c(c(=O)n(C)c(=O)n2C)n1Cc1ccc(F)cc1	6.6%	>57
83	CCn1cc(C(=O)O)c(=O)c2ccc(C)nc21	-13.7%	>57&>57
84	Cc1ccc(C#CC2C=CC(Oc3ccc4c(c3)OCO4)C(CO)O2)c(C)c1 (configuration not stated)	-13.7%[8 µM]	x
85	COC(=O)CNC(=O)C1CCCN1C(=O)CNC(=O)OC(C)(C)C (configuration not stated)	0.8%	>57
86	COc1ccc(N2CCN(C(c3ccccc3OC)c3nnnn3Cc3ccco3)CC2)cc1 (configuration not stated)	-5.9%	>57
87	COC(=O)c1cc2c(cn1)[nH]c1ccccc12	5.3%	>57
88	Cc1ccsc1-c1nc(CSCC(=O)NCCN2CCCC2)c(C)o1	5.6%	>57
89	O=C1CC(N2CCN(c3ccc(O)cc3)CC2)C(=O)N1Cc1cccs1 (configuration not stated)	8.6%	>57
90	CC(C)NC(=O)C1CCCN(S(=O)(=O)c2cccs2)C1 (configuration not stated)	5.7%	>57
91	Cn1cccc1Cc1nnc(SCC(N)=O)n1-c1ccc(F)cc1	7.7%	>57
92	CC1CCN(S(=O)(=O)c2ccc(NC(=O)Cn3nnc(-c4ccccc4)n3)cc2)CC1	u	>57
93	Cc1ccc(NC(=O)CS(=O)CC(=O)Nc2ccc3c(c2)OCO3)cc1Cl (configuration not stated)	u	>57
94	CN1CCN(S(=O)(=O)c2ccc(Sc3nc4ccccc4[nH]3)c3nsnc23)CC1	-0.8%	>57
95	C=CCn1c(COc2ccc(CC)cc2)nnc1SCC(=O)N(C)C1CCS(=O)(=O)C1 (configuration not stated)	0.1%	>57
96	CCOC(=O)C1C(=O)C=C(c2cccc(NS(C)(=O)=O)c2)CC1c1ccco1 (configuration not stated)	-3.4%	>57
97	CC(=O)Oc1ccc(C(c2ccc(OC(C)=O)cc2)c2ccccn2)cc1	0.159µM*	>57
98	OC[C@H]1O[C@@H]2O[C@H]3[C@H](O)[C@@H](O)[C@@H](O[C@H]4[C@H](O)[C@@H](O)[C@@H](O[C@H]5[C@H](O)[C@@H](O)[C@@H](O[C@H]6[C@H](O)[C@@H](O)[C@@H](O[C@H]7[C@H](O)[C@@H](O)[C@@H](O[C@H]1[C@H](O)[C@H]2O)O[C@@H]7CO)O[C@@H]6CO)O[C@@H]5CO)O[C@@H]4CO)O[C@@H]3CO	-7.7%	x
99	O=S(=O)(c1ccc(F)cc1)N1CCC(N2CCCC2)CC1	u	>57
100	COc1ccc(Oc2ncnc3c2oc2ccc(Br)cc23)cc1	-3.5%	>57

# (cont.)
cpd	SMILES	LT uptake inh	SmPrx2 inh
101	CC(C)C[C@@H](CC(=O)N[C@@H](CCC(=O)O)CC(=O)O)NC(=O)[C@@H]1CCCC[C@H]1NC(=O)C[C@H](CCCN)NC(=O)C[C@H](Cc1ccccc1)NC(=O)[C@@H]1CCCC[C@H]1N	-5.8%	>57
102	CC(=O)OC/C=C(\C)CCC=C(C)C	-4.9%	x
103	Cn1c(=O)[nH]c(=O)c2c1nc(N1CCCCCC1)n2CCSc1nc2ccccc2o1	-6.5%	>57
104	COc1ccc(-c2nnc(Nc3nc4c(OC)cccc4s3)o2)c(OC)c1	-5.1%	>57
105	CN1/C(=N\O)c2cccc3cccc1c23	u	>57
106	O=C(CSc1nnc(NC(=O)C2CCC2)s1)NC1CC1	-0.7%	>57
107	COc1ccc(CCNS(=O)(=O)c2ccc(C3CNC(=O)C3)cc2)cc1OC (configuration not stated)	-4.1%	>57
108	COc1ccc(CNC(=O)C2CCCN2S(=O)(=O)c2ccc(C)cc2)cc1 (configuration not stated)	3.8%	>57

# From PubChem
